Screening data as filed in PubChem BioAssay.
LASV entry inh = inhibitors of Lassa virus binding or cell entry; Lassa virus pseudotype entry inhibition, cell reporter; control for the full effect not named in the record; Potency, µM (highest dose often 37.9 µM), inactives show top-dose activity change, negative = inhibition, actives largely listed as inhibitors; 300,000 compounds, 1.2% hits; AID 540256; active means well fitted inhibition curve with a large enough effect; inconclusive means small, poorly fitted or top-dose-only effect, or effect the other way; inactive means flat fitted curve, though single readings scatter; tested in HEK293 cells; also: % is scaled to controls: 0 for no effect and ±100 for the full control effect; nearly all actives have a fitted effect of over 50% in size; luciferase read-out
RE007 growth inh = less growth of the S. pombe RE007 Vpr strain. S. pombe RE007 Vpr strain, BacTiter-Glo ATP luminescence, 24 h; control for the full effect not named in the record. Potency, µM (top dose mostly 92.2 µM), for inactives: top-dose activity change, negative = less growth. 360,000 compounds, 0.21% hits; active = well fitted falling curve with a large enough effect; inconclusive = small, poorly fitted or top-dose-only effect; inactive = no such curve, though single readings can be large or run the other way;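 also: % is scaled to controls: 0 for no effect and ±100 for the full control effect; nearly all actives have a fitted effect of over 50% in size; the assay follows cell death caused by Vpr and the record does not say whether a fall means rescue or toxicity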
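Fission yeast strain RE007, carrying one chromosomally integrated HIV-1 vpr copy, was seeded at OD 0.01 in PMG+AL medium with 23 nL pinned compound. After 24 h at 30 °C and 99% humidity, viability was read by BacTiter-Glo luminescence.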
MARV entry inh = inhibitors of Marburg virus binding or cell entry; Potency, µM (series often up to 37.8 µM), for inactives: at the top dose activity change, negative = inhibition, actives largely listed as inhibitors; 300,000 compounds, 1.8% hits; AID 540276; Marburg virus pseudotyped entry inhibition, cell reporter; control for the full effect not named in the record; about a third of the inactives were read at about 46 µM; active = well fitted inhibition curve with a large enough effect; inconclusive = small, poorly fitted or top-dose-only effect, or effect the other way; inactive = flat fitted curve, though single readings scatter; tested in HEK293 cells; about a fifth of its hits are not listed in these tables; also: % is scaled to controls: 0 for no effect and ±100 for the full control effect; luciferase read-out
Cruzain inh noDet = blocks cruzain activity in detergent-free assay; Potency, µM, for inactives: max response, negative = inhibition, actives largely listed as inhibitors; 200,000 compounds, 2.3% hits; purified cruzain, Z-FR-AMC fluorescence, no detergent;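 also: plate controls were enzyme without inhibitor for no effect and buffer without enzyme for full effect; nearly all actives have a fitted effect of over 40% in size; top concentration of the series not given in the record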
Target sequence (P25779 123-467 limits assumed): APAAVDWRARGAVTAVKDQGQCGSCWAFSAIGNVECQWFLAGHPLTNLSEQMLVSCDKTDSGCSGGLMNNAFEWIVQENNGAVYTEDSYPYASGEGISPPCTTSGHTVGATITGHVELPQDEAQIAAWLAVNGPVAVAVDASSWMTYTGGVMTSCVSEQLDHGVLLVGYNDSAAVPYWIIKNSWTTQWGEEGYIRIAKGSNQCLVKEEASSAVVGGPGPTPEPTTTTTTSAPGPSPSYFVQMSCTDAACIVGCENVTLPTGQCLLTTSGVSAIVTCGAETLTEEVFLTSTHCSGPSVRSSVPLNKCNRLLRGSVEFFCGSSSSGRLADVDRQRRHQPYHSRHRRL
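Purified cruzain at 1.5 nM, pre-incubated 15 min with compound at room temperature in 100 mM sodium acetate pH 5.5, 5 mM DTT, 0.00005% Triton X-100. Reaction started with 2 uM Z-FR-AMC; AMC fluorescence increase over 60 s gives rate.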
2A StopGo = lowers the luciferase signal of an FMDV 2A StopGo reporter; human cells with a luciferase reporter of 2A StopGo recoding; control for the full effect not named in the record; Potency, µM (highest dose often 57.9 µM), without a hit: at the top dose signal change, negative = less light; 410,000 compounds, 1.2% hits; active = well fitted falling curve with a large enough effect; inconclusive = small, poorly fitted or top-dose-only effect; inactive = no such curve, though single readings can be large or run the other way; tested in HEK293T cells; also: % is scaled to controls: 0 for no effect and ±100 for the full control effect; nearly all actives have a fitted effect of over 45% in size; luciferase light after 4 h
NS1 function inh = inhibitors of influenza NS1 protein function; S. cerevisiae slowed by influenza A NS1, growth recovery by OD600; Potency, µM (doses to about 46.1 µM), inactives show at the top dose activity, positive = more growth; 270,000 compounds, 0.4% hits; AID 2326; active means well fitted rising curve with a large enough effect; inconclusive means small, poorly fitted or top-dose-only effect; inactive means no such curve, though single readings can be large or run the other way; also: nearly all actives have a fitted effect of over 50% in size
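Compounds were scored for reversing the slow growth caused by influenza A NS1 in S. cerevisiae, measured by optical density at 600 nm. Assay medium contained 2% galactose at pH 6.0; NS1-free yeast of the same strain were the positive control.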
SARS PLP yeast = inhibitors of SARS-CoV papain-like protease in yeast; Potency, µM (doses to about 32.9 µM), inactives show top-dose activity, positive = growth rescue; S. cerevisiae expressing SARS-CoV PLpro, growth rescue; control for the full effect not named in the record; 330,000 compounds, 0.19% hits; active means well fitted rising curve with a large enough effect; inconclusive means small, poorly fitted or top-dose-only effect; inactive means no such curve, though single readings can be large or run the other way; also: 0% is about no effect; nearly all actives have a fitted effect of over 55% in size; growth read by luminescence after 48 h
Cruzain inh Det = inhibitors of Trypanosoma cruzi cruzain with detergent | Potency, µM, for inactives: max response, negative = inhibition, usual class: inhibitors | P25779 | AID 1478 | purified cruzain, Z-FR-AMC fluorescence, 0.01% Triton | 200,000 compounds, 0.43% hits;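 also: plate controls were neutral wells for no effect and buffer without enzyme for full effect; nearly all actives have a fitted effect of over 40% in size; top concentration of the series not given in the record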
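Cruzain (1.5 nM) preincubated 15 min at RT with compound in 100 mM sodium acetate pH 5.5, 5 mM DTT, 0.01% Triton X-100. Reaction started with 2 uM Z-FR-AMC; AMC fluorescence (ex 360/em 450 nm) change over 60 s gave rate.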
* hit, by the source's call; ? = inconclusive; nt = no result given; & = joins results of further samples; [ ] = another dose, or the depositor's remark. Unless noted, calls follow the shape of the dose curve; as a rule, active = well fitted curve in the direction sought with a large enough effect; inconclusive = small, poorly fitted or top-dose-only effect, or another doubt; inactive = no such curve, though single readings can be large; an effect the other way counts as inactive or inconclusive. Potency is read from the fitted curve at half-maximal effect.

Each structure is followed by: LASV entry inh | Cruzain inh noDet | 2A StopGo | Cruzain inh Det | RE007 growth inh | SARS PLP yeast | NS1 function inh | MARV entry inh
- COc1ccc(-c2nnn(CC(=O)NCCc3c[nH]c4ccccc34)n2)cc1OC
 : -5% | -1% | -8% | 0.2% | -8% | -5% | 12% | -12%
- O=C(NCc1ccncc1)C(=O)NCC1OCCN1S(=O)(=O)c1ccc(F)cc1 (centres undefined)
 : 2%[46.1 µM] | nt | 38% | nt | -12% | 0% | 1% | 10%[46.1 µM]
- COc1ccc(NC(=O)CS(=O)(=O)c2ccc(F)cc2)cc1
 : ? | nt | 14% | nt | 3% | 2% | -3% | 13%[46.1 µM]
- CCc1ccc(C(=O)NCc2ccc(Cl)cc2)cc1
 : 4% | ? | 50%[activator] | 2.0% | 10% | 5% | 13% | ?
- O=C1CC(c2ccc(Cl)cc2)c2cc3c(cc2N1)OCCO3 (centres undefined)
 : -10%[46.1 µM] | -10% | -12% | -9.2% | nt | nt | nt | ?
- CCNC(=S)NNC(=O)c1c(Cl)c(C)nn1C
 : -10% | 12% | -11% | 2.5% | 9% | 3% | 4% | 20%
- COc1cc(/C=N/NC(=O)c2csc3c2CCCC3)cc(OC)c1O
 : -6% | ? | -25% | -8.8% | 13% | 3% | -24% | ?
- O=C1CCC(/C=C/c2ccccc2)=NN1Cc1ccccc1Cl
 : -26% | -4% | -17% | -3.8% | -1% | -2% | 1% | -16%[46.1 µM]
- CNc1nc2ccccc2n1N
 : ? | -10% | -8% | 0.4% | 2% | 8% | 20% | 16%
- CCn1c(/C=C2\C(=O)N(C(C)C)c3ccccc32)nc2ccccc2c1=O
 : nt | nt | ? | nt | 1% | -2% | -6% | nt
- O=C(c1cccs1)N(c1ccc(Cl)cc1)C1C=CS(=O)(=O)C1 (centres undefined)
 : -9%[46.1 µM] | nt | -14% | nt | 2% | 1% | -3% | ?
- COc1ccc(CNC(=O)CSc2nccn(-c3ccc(F)c(F)c3)c2=O)cc1
 : -9% | nt | -7% | nt | -6% | -11% | nt | -1%
- CC(C)=CCN1CCN(Cc2cccn2-c2ccccn2)CC1CCO (centres undefined)
 : -2% | nt | -8% | nt | -8% | 0% | -2% | 3%
- COc1ccc(CNCc2c(C(=O)O)c(C)n(Cc3ccccc3C)c2C)c(OC)c1
 : -12%[46.1 µM] | -1% | 36%[activator] | 2.8% | nt | nt | nt | -15%[46.1 µM]
- O=[N+]([O-])c1ccc2c(c1)Cc1cc(F)ccc1-2
 : 2%[46.1 µM] | nt | -5% | nt | -18% | nt | nt | 2%[46.1 µM]
- Cc1cc(C)n(-c2nnc(Nc3ccc(C(C)C)cc3)c3ccccc23)n1
 : -15%[46.1 µM] | -6% | 1% | -11% | nt | nt | nt | nt
- Cc1ccc(N(CC(=O)N2CCOCC2)S(C)(=O)=O)cc1C
 : -4% | 19% | 12% | 5.5% | 8% | -12% | 3% | 7%
- Cc1cc(-c2ccccc2)nc(N2CCN(c3ccccn3)CC2)n1
 : 4.6µM* | -7% | nt | -9.2% | 8% | -18% | -15% | 9.2µM*
- Cc1ccccc1CN1CCNC(=O)C1CC(=O)NCCC1=CCCCC1 (centres undefined)
 : 7% | nt | -10% | nt | -8% | -3% | 5% | -26%
- CC(C)CCN(C(=O)CNC(=O)c1ccco1)C(C(=O)NC1CCCCC1)c1cccnc1 (centres undefined)
 : -2% | nt | -13% | nt | -14% | 2% | -7% | nt
- CC(=O)[C@@H]1[C@@H](C(=O)c2ccc(F)cc2)[C@]2(C(=O)Nc3ccccc32)[C@H]2C=Cc3cc(F)ccc3N12
 : ? | nt | -12% | nt | 0% | -1% | 14% | -21%[46.1 µM]
- O=C(NCCCN1CCCCC1)C1CCC(CNS(=O)(=O)c2cccc3nsnc23)CC1 (centres undefined)
 : nt | nt | -5% | nt | -10% | 1% | 4% | nt
- CN1/C(=C\C(=O)C(F)F)C(C)(C)c2ccccc21
 : -2% | -7% | ? | -1.4% | 1% | -7% | -4% | 3%
- Cc1nc2ccc(NC(=O)c3ccc([N+](=O)[O-])cc3)cc2[nH]1
 : ? | nt | 2% | nt | -8% | -2% | 6% | -4%
- O=C(NC1CCCC1)c1ccc(CSc2nc3ccncc3n2Cc2cccc(F)c2)cc1
 : -19%[46.1 µM] | -2% | 0% | -5.2% | nt | nt | nt | -2%[46.1 µM]
- Cc1ccccc1N1CC(C(=O)N2CC(C)CC(C)C2)CC1=O (centres undefined)
 : -1% | nt | -10% | nt | 6% | 0% | nt | -6%
- CCOC(=O)c1sc2nc3c(cc2c1N)COC(C)(C)C3
 : ? | -15% | 62%[activator] | -7.4% | 17% | -14% | -10% | ?
- CCn1cc(C(=O)NC(=S)Nc2cccc(O)c2)cn1
 : -2% | -4% | 35%[activator] | 0.9% | -14% | -2% | 1% | 19%
- C#CCOC(=O)CN1C(=O)c2cccc3cccc(c23)C1=O
 : 3% | nt | 30% | nt | -12% | 1% | 14% | 16%
- COc1ccccc1-c1nn2c(-c3ccc(C(C)(C)C)cc3)nnc2s1
 : nt | 6% | nt | -3.2% | nt | ? | -21% | 0%
- O=c1cc(-c2ccccc2)[nH]c2cc(Cl)ccc12
 : ? | 0%&0% | 0% | -0.8%&-0.5% | 1% | -1% | -1% | ?
- CCn1c2ccccc2c2cc(NC(=O)c3cc(C)on3)ccc21
 : ? | nt | 0% | nt | -10% | -4% | nt | ?
- Cc1ccc(CN(C)C(=O)C2CCC(=O)N(CC3CCCCC3)C2)o1 (centres undefined)
 : 24%[46.1 µM] | nt | 8% | nt | -10% | 1% | 9% | -8%[46.1 µM]
- Cc1ccc2cccc(NC(=O)c3ccc(Br)o3)c2n1
 : ? | 6% | 0% | -3.9% | 2% | 9% | -47% | -8%
- CC(C)c1nnc(NC(=O)CSc2ncn[nH]2)s1
 : -5% | 8% | 9% | 3.0% | 3% | 2% | ? | -18%
- COC(=O)C1=C(C)N(c2ccc(Cl)c(Cl)c2)C(=O)C1
 : -7% | 0% | ? | -4.0% | -4% | 4% | 10% | -23%
- COc1ccc(Nc2nc(C(C)(C)C)nc3c2nnn3Cc2ccccc2Cl)cc1OC
 : 5% | nt | ? | nt | -1% | nt | nt | -13%
- COc1ccccc1NC(=S)NCCSc1ccc(Cl)cc1
 : 2% | -4% | 14% | -24% | nt | -59% | -1% | ?
- Cc1ccc(C(=O)Nc2ccc3c(c2)OCCO3)cc1
 : 2.8µM* | nt | ? | nt | 79% | -8% | -47% | ?
- Cc1ccc(-c2nnn(CC(=O)N(Cc3cccs3)C(C(=O)NC3CCCCC3)c3ccco3)n2)o1 (centres undefined)
 : 9% | -16% | 27% | 0.5% | 1% | -4% | 1% | ?
- COc1ccc(N(Cc2cc3ccc(C)cc3[nH]c2=O)C(C)=O)cc1
 : ? | 1% | -19% | -1.5% | -3% | 6% | -4% | -16%
- O=C(CCC1N=C2c3ccccc3N=C(SCc3ccc(Cl)cc3)N2C1=O)NCc1ccco1 (centres undefined)
 : 7% | ? | -13% | -6.5% | 12% | 3% | 7% | ?
- Cc1cc(-c2ccccc2)n2nc(N)nc2n1
 : nt | nt | -11% | nt | 7% | 0% | 6% | nt
- COc1ccc(OC)c(NC(=O)COC(=O)CN(C)S(=O)(=O)c2ccc(C)cc2)c1
 : ? | -2% | -16% | -2.5% | 2% | -9% | -57% | ?
- CC1CCCN(CCOc2ccc(Br)cc2)C1 (centres undefined)
 : -18% | 5% | -2% | 2.8% | -10% | -2% | 2% | ?
- Cn1c(=O)c2c(-c3ccc(Cl)cc3)n(Cc3ccccc3)cc2n(C)c1=O
 : -19%[46.1 µM] | 3% | 0% | -2.5% | nt | nt | nt | -24%[46.1 µM]
- Cc1ccc(Cn2cc(C(=O)c3ccc4c(c3)OCO4)c(=O)c3cc(C)ccc32)cc1
 : ? | ? | -19% | -3.2% | nt | nt | nt | -29%[46.1 µM]
- O=C(Nc1ccc2c(c1)OCO2)c1cnn2c1NC(c1ccco1)CC2C(F)(F)F (centres undefined)
 : -6% | ? | 1% | 0.1% | 4%[3.69 µM] | -4% | 2% | 1%
- CCC(=O)Nc1ccc(-c2nnc(SCC(=O)N3CCCCC3)n2C)cc1
 : 5% | -7% | -4% | 5.1% | 4% | 10% | -9% | -18%
- Cc1cc(C(=O)COc2cccc3cccnc23)c(C)n1C
 : ? | 13% | 4% | -5.6% | -9% | -25% | -15% | ?
- N#Cc1ccccc1Cn1c(=O)n(CCCC(=O)NCc2ccc3c(c2)OCO3)c(=O)c2ccccc21
 : 15%&-3% | -28% | 8% | -3.9% | -2% | -4% | -1% | 15%&4%
- CC(=O)C1=C(C)NC(=O)NC1c1ccc(Cl)cc1 (centres undefined)
 : -2% | nt | -16% | nt | -11% | 0% | nt | 28%[46.1 µM]
- O=C(O)c1ccc(-n2[nH]c3c(c2=O)CCCC3)cc1
 : ? | nt | -10% | nt | -7% | -1% | 2% | 5%[46.1 µM]
- COc1ccccc1Oc1ccc(N/C=C/C(=O)C(C)(C)C)cc1
 : 1%[46.1 µM] | nt | -1% | nt | -13% | 0% | 9% | 13%[46.1 µM]
- S=C(NC1CCCC1)N1CCOCC1
 : 20%[46.1 µM] | nt | -7% | nt | 10% | 9% | nt | ?
- CC(=O)Oc1ccc(C(=O)Nc2ccccc2C(=O)Nc2cccc(C(=O)O)c2)cc1
 : -2% | nt | 3% | nt | 14% | nt | 23% | 3%

Three compounds picked at random from the list so far:
Each structure is followed by: LASV entry inh | Cruzain inh noDet | 2A StopGo | Cruzain inh Det | RE007 growth inh | SARS PLP yeast | NS1 function inh | MARV entry inh
- Cc1ccc(CN(C)C(=O)C2CCC(=O)N(CC3CCCCC3)C2)o1 (centres undefined)
 : 24%[46.1 µM] | nt | 8% | nt | -10% | 1% | 9% | -8%[46.1 µM]
- CCC(=O)Nc1ccc(-c2nnc(SCC(=O)N3CCCCC3)n2C)cc1
 : 5% | -7% | -4% | 5.1% | 4% | 10% | -9% | -18%
- Cc1ccc(C(=O)Nc2ccc3c(c2)OCCO3)cc1
 : 2.8µM* | nt | ? | nt | 79% | -8% | -47% | ?
